PINK1 modulator: A Quantitative High throughput Screen to Identify Chemical Modulators of PINK1 Expression. 0.2% of 410,000 active. Potency, µM (series often up to 76.6 µM), for inactives: top-dose activation (PINK1 increase), actives largely listed as activators. PINK1 immunofluorescence, high-content cytometry, 24 h. AID 624263, 2012; active = well fitted activation curve with a large enough effect; inconclusive = small, poorly fitted or top-dose-only effect; inactive = flat fitted curve, though single readings scatter; cell line not stated here;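 note: potency is the fitted concentration of half-maximal effect; % of control where 0% means no effect; nearly all actives have a fitted effect of over 65% in size; a mitochondrial uncoupler was the plate control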
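PINK1 protein, normally rapidly degraded, was detected by immunofluorescence after 24 hour compound treatment of a stable cell line. Titration data (5 concentrations) came from laser-scanning cytometry, with CCCP-treated wells as controls.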
TRPML1 blocker: qHTS for Inhibitors of the Human Mucolipin Transient Receptor Potential 1 (TRPML1). Mucolipin-1 (Homo sapiens), Q9GZU1. TRPML1-inducible cells, Ca2+ dye fluorescence, FDSS; stronger effect = lower value; inhibition of EC80 agonist-evoked calcium signal. activity change, negative = inhibition, % (no concentration beside the values). 0.02% of 390,000 active. AID 624415, 2012; in the data active means activity change below about -50%; inconclusive means about -30% to -50%; inactive means above about -30%;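 note: stimulus is agonist 54-4 at its EC80 concentration; % is set by controls: 0 for no effect and ±100 for the full control effect; compound concentration not given in the record; the text of the record puts the active cut at -80%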
Target sequence (Q9GZU1 whole entry, looked up): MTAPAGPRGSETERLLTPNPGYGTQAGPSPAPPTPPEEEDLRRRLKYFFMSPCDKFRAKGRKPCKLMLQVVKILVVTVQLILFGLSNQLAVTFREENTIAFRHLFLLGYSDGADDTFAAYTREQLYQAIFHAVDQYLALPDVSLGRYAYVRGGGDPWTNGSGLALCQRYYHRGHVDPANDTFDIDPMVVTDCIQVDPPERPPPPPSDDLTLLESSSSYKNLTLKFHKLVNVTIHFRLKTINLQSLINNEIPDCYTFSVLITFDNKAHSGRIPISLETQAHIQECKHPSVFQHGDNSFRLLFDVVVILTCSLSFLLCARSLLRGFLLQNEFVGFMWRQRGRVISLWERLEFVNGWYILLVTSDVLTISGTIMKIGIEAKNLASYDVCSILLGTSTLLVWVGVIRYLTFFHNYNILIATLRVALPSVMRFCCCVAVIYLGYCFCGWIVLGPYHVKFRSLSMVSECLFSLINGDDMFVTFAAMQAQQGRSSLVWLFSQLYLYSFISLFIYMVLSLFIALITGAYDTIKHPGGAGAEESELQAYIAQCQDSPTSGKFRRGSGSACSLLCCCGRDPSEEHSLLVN
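Tet-induced TRPML1-DL cells loaded with Ca8 no-wash calcium dye were read kinetically on FDSS. Compound addition was followed by EC80 agonist 54-4 (4 uM final); inhibition was read over 110 s.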
Six1-Eya2 blk: qHTS Assay for Inhibitors of the Six1/Eya2 Interaction; AlphaScreen GST-Six1/His-Eya2 binding, biochemical; stronger effect = lower value; control for the full effect not named in the record; AID 651725, 2012; activity change, % (no concentration beside the values); 0.56% of 360,000 active; in the data active = activity change below about -65%; inconclusive = about -30% to -65%; inactive = above about -30%; note: % is set by controls: 0 for no effect and ±100 for the full control effect; compound concentration not given in the record
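Homogeneous AlphaScreen proximity assay pairing GST-Six1 with His-tagged Eya2 (added as 5X mix: 250 nM and 500 nM) in 50 mM Tris pH 8.0, 300 mM NaCl, 1 mM TCEP. Glutathione donor and nickel acceptor beads; 1 h, 37 °C, dark.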
TRPML1 agonist: qHTS for Agonists of the Human Mucolipin Transient Receptor Potential 1 (TRPML1); 0.12% of 410,000 active; activation, % (concentration not given with the values); Mucolipin-1 (Homo sapiens), Q9GZU1; TRPML1-expressing cells, Ca2+ dye fluorescence, FDSS; host cell line not named in the record; reference of the full effect not given here; AID 624414, 2012; in the data active = activation above about 50%; inconclusive = about 30% to 50%; inactive = below about 30%; note: 0% is about no effect; the text of the record puts the active cut at 80%
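Tet-induced TRPML1-DL cells, 1,500 per well, cultured overnight, were loaded with a no-wash Ca2+ dye for 45–90 min. Calcium fluorescence was recorded on the FDSS for 110 s after compound addition, before the EC80 agonist (4 uM 54-4) was added.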
D2 potentiator: Beta-Arrestin HTS for Positive Allosteric Modulators of the Human D2 Dopamine Receptor: Potentiators. 0.23% of 360,000 active. DiscoveRx D2 beta-arrestin cells, luminescence, 90 min; 100% = 57 uM dopamine signal. potentiation, % (no concentration beside the values). D(2) dopamine receptor (Homo sapiens), P14416; active = potentiation of 50% or more; inconclusive = 30% to 50%; inactive = 30% or less;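 note: compound concentration not given in the record; tested on top of an EC20 dose of dopamine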
Target sequence (P14416 whole entry, looked up): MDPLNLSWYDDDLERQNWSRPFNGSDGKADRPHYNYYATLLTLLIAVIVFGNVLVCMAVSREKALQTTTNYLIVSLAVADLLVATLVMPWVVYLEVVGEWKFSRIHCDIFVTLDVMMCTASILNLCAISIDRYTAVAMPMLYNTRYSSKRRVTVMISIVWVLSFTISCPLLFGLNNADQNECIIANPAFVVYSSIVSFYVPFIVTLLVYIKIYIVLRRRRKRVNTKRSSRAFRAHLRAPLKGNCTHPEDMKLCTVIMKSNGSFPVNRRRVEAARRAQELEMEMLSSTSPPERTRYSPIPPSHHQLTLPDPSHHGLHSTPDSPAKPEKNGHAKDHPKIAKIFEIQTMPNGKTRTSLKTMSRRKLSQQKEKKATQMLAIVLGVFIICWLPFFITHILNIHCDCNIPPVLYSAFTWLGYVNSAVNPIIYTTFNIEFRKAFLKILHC
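D2 cells co-treated with compound plus 50 nM dopamine (EC20) for 90 min at 37 deg C to detect potentiation. Beta-arrestin recruitment was read as enzyme-fragment luminescence after 1 h at ambient temperature. Full response was set by 57 uM dopamine.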
D2 ag: Beta-Arrestin HTS for Positive Allosteric Modulators of the Human D2 Dopamine Receptor: Agonists; D(2) dopamine receptor (Homo sapiens), P14416; DiscoveRx PathHunter D2 beta-arrestin, luminescence, 90 min; 100% = 57 uM dopamine signal; activation, % (test concentration not listed); 0.084% of 360,000 active; AID 624465, 2012; in the data active = activation above about 40%; inconclusive = about 15% to 40%; inactive = below about 15%; note: compound concentration not given in the record; the text of the record calls up to 30% inactive
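Agonist mode: compounds alone added to overnight-plated D2 PathHunter cells for 90 min at 37 C, with 57 uM final dopamine (EC100) defining full response. Beta-arrestin recruitment detected by chemiluminescent reagent, read after 1 h at ambient temperature.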
An asterisk follows results filed as active; ? = inconclusive; . = not tested or not shown; & = joins results of further samples; [ ] = remark or other dose. Random draw from the library; any-hit rate near 1%.

smiles	PINK1 modulator	TRPML1 blocker	Six1-Eya2 blk	TRPML1 agonist	D2 potentiator	D2 ag
O=C(COC(=O)c1nc(Cl)ccc1Cl)NC(=O)c1ccccc1	-0.3%	-13	10	-0.2	-1	-4.3
COc1ccc(N2CCN(Cc3cc(=O)c(OCC(=O)Nc4ccccc4)co3)CC2)cc1	7.6%	-6	-2	0.4	0	-2.8
COc1ccc(CN2CCN(C3CCC3)CC2CCO)c(F)c1 (stereo not given)	1.2%	.	4	.	-32	-2.5
Cc1ccc(NC(=O)CSCC(=O)Nc2cc(Cl)ccc2N2CCOCC2)cc1	-1.6%	-3	-5	1.0	-8	-1.9
Cc1cc(C)c(Cn2c(=O)n(CCCC(=O)NCc3ccc4c(c3)OCO4)c(=O)c3sccc32)c(C)c1	-0.6%	-5	.	-0.4	.	.
COc1ccc(CN2CCOC2=O)cc1OC	-1.6%	1	-3	-1.1	0	2.9
O=C1CC(c2ccccc2)CC(O)=C1C=Nc1ccccc1Cl (stereo not given)	8.8%	10	6	0.4	-9	-3.3
Cc1cc(C)c(S(=O)(=O)N2CCCOC2CNC(=O)C(=O)NCc2ccco2)c(C)c1 (stereo not given)	-2.1%	-19	9	0.0	-23	-1.3
COCCN(C(=O)COC(=O)CSc1ccc(Cl)cc1)c1c(N)n(Cc2ccccc2)c(=O)[nH]c1=O	7.6%	11	0	-0.5	-2	1.0
CCn1c(CC(=O)Nc2cccc(Cl)c2Cl)nnc1SCCOc1ccc(OC)cc1	1.2%[38.3 µM]	1	-2	0.4	3	1.3
Cc1ccc(S(=O)(=O)N(Cc2ccccc2Cl)C(=O)N2CCN(C)CC2)cc1	3.0%	11	1	-0.1	7	4.1
O=c1[nH]c(=S)[nH]c2c1[C@H](C1CC1)O[C@H](CCc1ccccc1)C2	1.0%	.	3	-0.7	.	.
COc1ccccc1C(=O)O/N=C(\N)c1ccc(Cl)cc1	12%[38.3 µM]	-5	9	1.1	?	7.1
CCOc1ccccc1CN1C(=O)NC(C)(c2ccccc2)C1=O (stereo not given)	2.7%	-3	1	-1.2	-3	-1.8
CCn1c(-c2cccnc2Cl)nc2ccccc21	-0.6%	10	10	-0.5	-4	-1.3

Reformatted: entries from further up
> COc1ccc(CN2CCOC2=O)cc1OC
  PINK1 modulator: -1.6%
  TRPML1 blocker: 1
  Six1-Eya2 blk: -3
  TRPML1 agonist: -1.1
  D2 potentiator: 0
  D2 ag: 2.9

> O=C1CC(c2ccccc2)CC(O)=C1C=Nc1ccccc1Cl (stereo not given)
  PINK1 modulator: 8.8%
  TRPML1 blocker: 10
  Six1-Eya2 blk: 6
  TRPML1 agonist: 0.4
  D2 potentiator: -9
  D2 ag: -3.3

> Cc1cc(C)c(S(=O)(=O)N2CCCOC2CNC(=O)C(=O)NCc2ccco2)c(C)c1 (stereo not given)
  PINK1 modulator: -2.1%
  TRPML1 blocker: -19
  Six1-Eya2 blk: 9
  TRPML1 agonist: 0.0
  D2 potentiator: -23
  D2 ag: -1.3

> COCCN(C(=O)COC(=O)CSc1ccc(Cl)cc1)c1c(N)n(Cc2ccccc2)c(=O)[nH]c1=O
  PINK1 modulator: 7.6%
  TRPML1 blocker: 11
  Six1-Eya2 blk: 0
  TRPML1 agonist: -0.5
  D2 potentiator: -2
  D2 ag: 1.0

Remaining list, next part
smiles	PINK1 modulator	TRPML1 blocker	Six1-Eya2 blk	TRPML1 agonist	D2 potentiator	D2 ag
CCN1CCCc2cc(CN(CCN3CCOCC3)C(=S)Nc3ccc(OC)cc3)ccc21	3.8%	-2	-8	-0.7	-11	-2.4
CCOc1ccc(OCCC(=O)OCC(=O)Nc2cc(OCC)c(N3CCOCC3)cc2OCC)cc1	-0.4%	30	?	5.5	-30	-0.6
CC(O)c1nc2ccccc2n1Cc1ccc([N+](=O)[O-])cc1 (stereo not given)	0.8%	22	-1	0.2	-4	0.5
CC1CC(C)CN(c2ccc([N+](=O)[O-])nc2)C1 (stereo not given)	0.8%	24	-7	0.3	-3	-5.8
CCN(c1ccc(OC)cc1)S(=O)(=O)c1ccc(-c2cc(C)no2)s1	3.8%	24	4	4.5	-10	-6.7
CCN(CC)c1ccc(NC(=O)COC(=O)c2ccc3ccccc3n2)cc1	-2.0%	3	-29	-1.3	-6	-3.5
COC(=O)c1cncn1Cc1ccccc1	-2.1%	-3	9	-0.1	2	-1.2
CC(C)NC(=O)Nc1ccc2c(c1)C(=O)N([C@H](C)CO)C[C@H](C)[C@@H](CN(C)Cc1ccc(C(F)(F)F)cc1)OCCCC[C@H](C)O2	25%	-4	5	-0.2	-2	-2.5
COc1ccc(-c2nc3c4ccccc4n(CC(=O)N4CCN(c5ccccc5OC)CC4)c(=O)n3n2)cc1	5.3%	-14	.	0.5	.	.
O=C(CNC(=O)c1cccs1)c1ccc(F)cc1	2.3%[38.3 µM]	5	0	1.6	2	0.0
CC(C)NC(=O)CSc1nccc(-c2cccs2)n1	1.1%	0	-3	-0.7	-18	-2.8
CCN(CC)C(=O)c1nc(-c2cccc3ccccc23)no1	-0.3%	43	29	0.9	-11	-3.5
Cn1c(=O)c2c(ncn2Cc2ccc(Cl)cc2)n(C)c1=O	1.0%&0.3%	37&16	2	0.1&-0.3	3	1.6
COc1cc(NC(=O)c2ccccc2)c(OC)cc1NC(=O)CN1CCOCC1	0.6%	5	-12	-1.8	0	3.4
Cc1cccc(OCC(=O)N2CCc3ccccc3C2)c1C	0.4%	13	1	2.0	-7	1.2

smiles	PINK1 modulator	TRPML1 blocker	Six1-Eya2 blk	TRPML1 agonist	D2 potentiator	D2 ag
CN(C)CCCNCC(=O)c1c(-c2ccccc2)n(C)c2ccccc12	-0.5%	-29	-12	-0.3	-16	-3.0
O=C(CSc1n[nH]c(=O)n1Cc1ccccc1)Nc1ccc(F)c(F)c1F	-1.3%	30	3	3.4	-4	-0.4
COc1ccc(C2=NOC(C(=O)Nc3cccnc3)C2)cc1OC (stereo not given)	-0.2%	6	4	0.7	-2	-3.1
N#C/C(=C\c1ccc(O)c(O)c1)C(=O)c1ccc(O)c(O)c1	0.8%	15	-28	0.1	5	-4.0
COc1ccc(CCNC(=O)CSC2=NS(=O)(=O)c3cc(F)ccc3N2)cc1OC	3.0%	0	22	-0.5	-14	-6.8
CCOC(=O)C1=CN(Cc2ccco2)S(=O)(=O)N(C)C1c1cccc(OC)c1 (stereo not given)	0.7%	10	-6	1.1	-3	-1.8
Cc1noc(NS(=O)(=O)c2ccc(NC(=O)C34CCC(CC3)C4)cc2)c1C	2.1%[38.3 µM]	7	-10	-0.1	-13	-0.3
C/C=C(\C)C(=O)Nc1cccc(C2=NOC3(C2)C[C@@H](C(N)=O)N(C(=O)c2cc([N+](=O)[O-])cc([N+](=O)[O-])c2C)C3)c1 (stereo not given in full)	0.3%	-11	1	-0.8	22	7.0
Cc1ccc(CNC(=O)Cn2ccn(-c3ccc(C)c(C)c3)c(=O)c2=O)cc1	4.8%	8	.	0.6	.	.
COc1ccc(NC(=O)C2CC2)cc1-n1cnnn1	-0.2%	-6	13	0.5	2	-1.4
CCc1ccc(OCC(=O)OCC(=O)NCCNC(=O)COC(=O)COc2ccc(CC)cc2)cc1	1.3%	11	12	0.2	5	-2.5
COC(=O)c1ccc(COc2cc(C)ccc2C)o1	0.5%	1	17	2.4	-3	-1.3
COc1ccc(NC(=O)c2nnn(Cc3nc(-c4cc(OC)c(OC)c(OC)c4)oc3C)c2C)cc1	2.5%	3	.	-0.6	.	.
C[C@@H]1C[C@H]2[C@@H]3C[C@H](F)C4=CC(=O)C=C[C@]4(C)[C@@]3(Cl)[C@@H](O)C[C@]2(C)[C@H]1C(=O)COC(=O)C(C)(C)C	1.2%	0	3	0.5	8	-4.1
C/C(=N/O)c1ccccn1	-1.1%	.	?	.	-30	-3.3

smiles	PINK1 modulator	TRPML1 blocker	Six1-Eya2 blk	TRPML1 agonist	D2 potentiator	D2 ag
C=C(C)Cn1c(CCNC(=O)C(C)(C)C)nc2ccccc21	1.2%	5	-3	0.3	-8	-4.4
Oc1ccccc1N=Cc1c(O)ccc2oc3c(c12)CCCC3	1.3%	1	-2	-0.8	-10	-2.4
Cc1[nH]c(=O)[nH]c(=O)c1S(=O)(=O)N1CCC(C(=O)NC(C)c2ccccc2)CC1 (stereo not given)	-0.9%	27	0	0.1	6	-2.0
CCCCNC(=O)c1c(O)c2cccc3c2n(c1=O)CCC3	-2.0%	44	12	0.5	-5	-1.4
O=C(O)Cn1c(SCc2cccc3ccccc23)nc2ccccc21	-0.3%	21	-1	-1.4	-7	-4.1
CC(C)CCC(C(=O)O)C(C)CC(=O)NNC(=O)c1ccco1 (stereo not given)	-0.3%&1.4%	19&15	5&3	-0.6&-0.2	-7&-6	0.7&-4.1
CC1CN(C(=O)c2cccc(COc3ccc(Br)cc3)c2)CC(C)O1 (stereo not given)	0.5%	6	-1	1.4	-17	-0.9
NS(=O)(=O)c1ccc(NC(=O)CSc2ncn[nH]2)cc1	2.7%	5	1	0.4	0	0.7
CN(C)C(CNC(=O)c1cc(Br)ccc1Cl)c1ccco1 (stereo not given)	0.7%	-13	2	0.6	-8	-0.4
Cc1cc(NC(=O)CCC(=O)N(CC(=O)NC2CCCC2)c2ccc(Cl)c(Cl)c2)no1	2.1%	-13	6	-0.7	-7	-4.6
O=S(=O)(c1ccccc1)N1CCN(C(=S)NCCc2ccccc2)CC1	0.4%	-6	0	0.1	-2	-3.9
O=C(Nc1ccccc1C(=O)N1CCOCC1)c1ccc(CSc2ccccc2)cc1	0.2%	-5	-4	-0.3	-14	-1.9
O=C(NCCCO)c1cc2ccccc2[nH]1	-0.2%	-1	9	0.0	2	-4.1
COc1ccccc1CNC(=O)COC(=O)CNS(=O)(=O)c1ccc(NC(C)=O)cc1	3.9%	-4	3	0.1	0	1.8
CCc1ccccc1NC(=S)/N=C(\N)Nc1nc(C)c2cc(C)ccc2n1	1.3%	-2	-14	1.4	-27	-5.3
